Source: PubChem (several laboratories)
WNV NS2B-NS3 inh = blocks West Nile virus NS2B-NS3 protease activity | P06935 | WNV NS2B-NS3 protease, fluorogenic substrate Ex360/Em465; active compounds read low | z-score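 (tested at a level between 10 and 100 µM)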 | hit rate 0.18% among 65,000 | AID 577;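 active = z-score at -3 or under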;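 note: score is relative to mean and spread of the compound wells of a plate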
Target sequence (P06935 1371-1501 limits assumed): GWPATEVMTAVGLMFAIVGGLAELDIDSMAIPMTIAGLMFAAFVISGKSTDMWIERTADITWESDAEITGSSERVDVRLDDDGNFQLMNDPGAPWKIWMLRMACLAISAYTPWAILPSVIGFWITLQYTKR
Target sequence (P06935 1502-1679 limits assumed): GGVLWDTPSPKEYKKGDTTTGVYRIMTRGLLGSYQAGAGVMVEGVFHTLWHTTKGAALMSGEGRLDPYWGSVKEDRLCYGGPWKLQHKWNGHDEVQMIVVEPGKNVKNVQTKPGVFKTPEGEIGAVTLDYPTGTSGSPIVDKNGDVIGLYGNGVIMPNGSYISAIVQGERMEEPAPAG
MT1-MMP reporter = inhibitors of MT1-MMP promoter transcription, cell-based, luciferase reporter, luminescence (AID 618); MT1-MMP promoter luciferase reporter cells, luminescence; calls from a first round at 10 µM; hits with a dose series show EC50 in µM; hit rate 0.62% among 87,000;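 active = over half of the reporter light lost at 10 µM or EC50 under 50 µM; inactive = the rest and hits that failed the dose series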;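 note: actives suppress MT1-MMP promoter-driven transcription so potencies describe inhibitors; HT1080 fibrosarcoma cells; overnight exposure; toxic or luciferase-blocking compounds were not removed from the actives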
Hsc70 ATP site = Hsc70 inhibitors, probe displacement, primary screen, biochemical, fluorescence polarization (AID 568); Hsc70 fluorescence polarization, probe displacement; higher % means a stronger effect; strong numbers were not always called active; displacement, % at 20 µM; hits with a dose series show IC50 in µM; 83,000 tested, under 10 active;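 active = displacement above 50% without optical interference and an IC50 on retest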;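 note: ATPase domain with a fluorescein-tagged ATP probe; 0% = vehicle and 100% = excess ADP; read after one hour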
Active calls of the source: *; i = inactive; . = no result given.

Values run as follows: WNV NS2B-NS3 inh, MT1-MMP reporter, Hsc70 ATP site
1	O=C(O)CCCCCN1C(=O)c2ccc(C(=O)O)cc2C1=O
    -0.31, i, 0.4%
2	CCOC(=O)Nc1ccc2c(c1)OCO2
    ., i, -1.2%
3	COc1cc(OC)cc(C(=O)Nc2ccc(-c3nc4ccccc4o3)cc2)c1
    -0.98, i, 0.7%
4	CCCNC(=O)N1CCC(C(=O)c2ccc(F)cc2)CC1
    ., i, 2.7%
5	COC(=O)c1c(C)c(C)nc(N)c1C#N
    ., i, 6.4%
6	Cc1cc(SCC(=O)Nc2ccccc2C)nc(C)n1
    ., i, 0.5%
7	CC(NC(=O)c1ccco1)C(c1cccs1)N1CCOCC1 (stereo unspecified)
    -0.88, i, -1.8%
8	CCCOc1ccc(OCCSc2ncccn2)cc1
    -1, i, 4.0%
9	CCCOc1c(OC)cccc1C1CC(=O)Nc2cc3c(cc21)OCCO3 (stereo unspecified)
    -1.1, i, -0.5%
10	O=C(C1Cc2ccccc2O1)N1CCCCC1 (stereo unspecified)
    0.58, i, -4.0%
11	COc1cccc(OCC(O)CN2CCOCC2)c1 (stereo unspecified)
    0.05, i, 2.0%
12	NC(=O)C1(N2CCCCC2)CCN(C(=O)c2ccc(C#Cc3ccccc3)o2)CC1
    0.04, i, -8.0%
13	Cc1sc2nc3n(c(=O)c2c1C)Cc1ccccc1-3
    1.7, i, -23%
14	Cc1ccc(NC(=O)CSc2nnc(Cn3cnc4ccccc43)o2)c(C)c1
    ., i, -1.1%
15	CCC(Oc1ccccc1)C(=O)Nc1ccc(S(=O)(=O)NCC2CCCO2)cc1 (stereo unspecified)
    1.4, i, -0.6%

The list goes on, overlapping the part above by 5 compounds.
Values run as follows: WNV NS2B-NS3 inh, MT1-MMP reporter, Hsc70 ATP site
11	COc1cccc(OCC(O)CN2CCOCC2)c1 (stereo unspecified)
    0.05, i, 2.0%
12	NC(=O)C1(N2CCCCC2)CCN(C(=O)c2ccc(C#Cc3ccccc3)o2)CC1
    0.04, i, -8.0%
13	Cc1sc2nc3n(c(=O)c2c1C)Cc1ccccc1-3
    1.7, i, -23%
14	Cc1ccc(NC(=O)CSc2nnc(Cn3cnc4ccccc43)o2)c(C)c1
    ., i, -1.1%
15	CCC(Oc1ccccc1)C(=O)Nc1ccc(S(=O)(=O)NCC2CCCO2)cc1 (stereo unspecified)
    1.4, i, -0.6%
16	C=CCNC(=O)CSc1nc2cc(C(=O)OCC)ccc2n1CC
    ., i, -2.4%
17	CCCCN(CC)CCNc1c(NC2CCN(C(=O)OCC)CC2)c(=O)c1=O
    -0.07, i, -1.3%
18	Cc1onc(-c2ccccc2)c1C(=O)NCCc1ccc(S(N)(=O)=O)cc1
    ., i, -2.2%
19	Cc1ccccc1OCC(O)Cn1c(NCc2ccco2)nc2c1c(=O)n(C)c(=O)n2C (stereo unspecified)
    -0.95, i, -6.2%
20	CCSc1ccccc1C(=O)Nc1nncs1
    0.23, i, -4.1%
21	COc1ccc(C(=O)CCC(=O)O)cc1
    -0.94, i, 4.5%
22	C=CCC1c2cccc(C(=O)O)c2C(=O)N1c1ccc(F)cc1 (stereo unspecified)
    0.22, i, 5.4%
23	CCOc1ccc2oc(-c3ccccc3)c(C(=O)N3CCN(C)CC3)c2c1
    -0.31, i, 1.0%
24	O=C(Nc1nnc(-c2ccccc2Cl)o1)c1ccco1
    -0.02, i, 4.1%
25	CCOC(=O)C1=C(C)Nc2ncnn2C1c1cc(OC)ccc1OC (stereo unspecified)
    -0.07, i, 3.1%
26	CCCCCCOc1ccc(OC(=O)c2ccncc2)cc1
    ., i, -8.6%
27	O=C(NCc1cccs1)c1cc(-c2cccc(Cl)c2)on1
    -0.47, i, 6.6%
28	COc1ccc(NC(=O)CS(=O)CC(=O)Nc2ccc(OC)c(OC)c2)cc1 (stereo unspecified)
    -0.74, i, 0.0%
29	COn1c(-c2ccccc2)nc2c1CCc1c-2no[n+]1[O-]
    ., i, 1.6%
30	COc1ccc(CCNC(=O)c2cccnc2)cc1OC
    0.15, i, 1.5%
31	COC(=O)CSc1nnc(SCc2ccccc2)s1
    1.7, i, -1.7%
32	CCCCn1c(SCC(=O)NCc2ccco2)nnc1-c1ccoc1C
    0.9, i, -6.2%
33	CCN1CCN(C(=O)c2cc3nc(-c4ccccc4)cc(C(F)(F)F)n3n2)CC1
    2.1, i, 2.8%
34	COc1cc(N=c2ssnc2Cl)c(OC)cc1Cl
    ., i, -3.8%
35	Cc1cccc(N2CCN(C(=O)Cc3c(C(=O)O)[nH]c4ccc(Cl)cc34)CC2)c1C
    -0.8, i, -1.1%
36	Cc1nc(CCNC(=O)COc2ccccc2)cs1
    -0.14, i, -2.9%
37	O=C1C2CCCN2C(c2ccc(F)cc2)N1c1cccc(Cl)c1 (stereo unspecified)
    -0.26, i, 0.7%
38	CCN1CCN(C2=C(Cl)C(=O)N(Cc3ccccc3)C2=O)CC1
    ., i, -5.3%
39	O=c1cc(COn2nnc3ccc(C(F)(F)F)cc32)nc2sccn12
    0.05, i, -2.2%
40	Cc1ccc(C(N)=S)c(C)c1
    0.99, i, -3.4%
41	COc1ccc(C(=O)N2CCN(C3CCC(c4ccccc4)CC3)CC2)cc1OC (stereo unspecified)
    0.36, i, 1.4%
42	O=c1c2ccccc2nnn1CSc1nnc(-c2cccnc2)n1-c1ccccc1F
    -1.5, i, 1.9%
43	COc1ccc(C)cc1N(CC(=O)Nc1cccc(N(C)S(C)(=O)=O)c1)S(C)(=O)=O
    1.3, i, -3.9%
44	CCOC(=O)N1CCN(CC(=O)c2c(C)[nH]c3ccccc23)CC1
    -0.1, i, 2.8%
45	Nc1c(NCc2ccccc2)c(=O)[nH]c(=O)n1Cc1ccccc1
    ., i, 4.6%
46	COc1ccc(CNC(=O)C(=O)NCC2CCCO2)cc1 (stereo unspecified)
    ., i, -2.7%
47	CC(C)C(=O)Nc1cccc(C(=O)Nc2ccc3c(c2)OCO3)c1
    -0.67, i, 1.5%
48	CCOc1ccc(NC(=O)CSc2nnc(C)n2Cc2ccccc2)cc1
    ., i, -5.6%
49	CCOC(=O)C(C)Sc1nnc(-c2c[nH]c3ccccc23)n1C (stereo unspecified)
    -0.22, i, -2.2%
50	CN(C)CCn1c(=O)n(Cc2ccco2)c(=O)c2c3c(sc21)CCCCC3
    ., i, 4.6%
51	CCOCCCNc1nc2c(c(=O)n(C)c(=O)n2C)n1CCCc1ccccc1
    0.4, i, -8.8%
52	O=C(c1ccc(O)cc1)c1ccc(C(=O)O)c(C(=O)O)c1
    -0.37, i, -5.7%
53	O=C(CN1CCC(O)CC1)N1c2ccccc2C=Cc2ccccc21
    1.6, i, 3.2%
54	CCOC(=O)c1c(-c2ccc(C)s2)csc1NC(=O)c1cccs1
    ., i, 4.3%
55	O=c1c2c(nc3c(-c4cccc5ccccc45)c[nH]n13)CCC2
    0.92, i, -3.8%
56	CC(=O)Nc1ccc(N2C(C(C)=O)=NN(c3ccccc3)C2c2cccs2)cc1 (stereo unspecified)
    ., i, -6.8%
57	CC(C)(C)NC(=O)Nc1ccccc1C(N)=O
    -0.66, i, 4.9%
58	CCOc1ccc(-n2c(COc3ccc(C)cc3)nnc2SCC(N)=O)cc1
    1, i, -1.1%
59	CC(C)N=c1cc2n(-c3ccc(Cl)cc3)c3ccccc3nc-2cc1Nc1ccc(Cl)cc1
    1.2, i, 68%
60	Cc1cc(NS(=O)(=O)c2ccc(NC(=O)Cc3cccs3)cc2)no1
    -0.72, i, 6.9%
61	Cc1noc(C)c1C(=O)NCc1ccco1
    -0.22, i, -5.3%
62	Cn1cccc1C(=O)OCc1cc(Cl)cc2c1OCOC2
    0.32, i, -0.9%
63	CCc1c(C)nc(N)n2c(SCC(=O)Nc3ccccc3OC)nnc12
    1.6, i, 2.9%
64	Cn1c(/C(C#N)=C2/CCCCCN2)nc2ccccc21
    -0.2, i, 2.7%
65	COc1ccc(NC(=O)CSc2nnc(Cn3c(=O)sc4ccccc43)n2C)cc1
    1.2, i, -3.8%
66	O=S(=O)(NC1CCCCC1NCc1ccco1)c1ccc(Cl)cc1 (stereo unspecified)
    -1.1, i, 1.9%
67	COc1cc(S(=O)(=O)N2CCC(c3nc4ccccc4s3)CC2)ccc1S(=O)(=O)NC1CCCC1
    ., i, 0.7%
68	Cn1c(NCCCN2CCOCC2)nc2c1c(=O)n(Cc1ccc(Cl)cc1Cl)c(=O)n2C
    0.75, i, -1.6%
69	COc1cc2c(cc1OC)-c1nnc(-c3cccs3)n1C(C)(C)C2
    1.1, i, -2.7%
70	COc1cccc(NC(=O)Cn2c(SCC(=O)N3CCOCC3)nc3ccccc32)c1
    -0.33, i, 5.7%
71	CCOC(=O)C(NC(=O)c1ccccc1)=C1C=C(C)OC(C)=C1
    -0.63, i, -0.4%
72	COC(=O)c1ccc(-n2c(C)nc(=O)c(-c3ccccc3)c2C)cc1
    ., i, 0.5%
73	CCc1c(C)c2c(C)[nH]nc2oc1=O
    -0.65, i, -0.2%
74	COc1ccc(CCNC(=O)CCCCn2c(=O)[nH]c3ccccc3c2=O)cc1OC
    -0.27, i, 0.7%
75	Cc1onc(-c2ccccc2Cl)c1C(=O)Nc1nnc(Cc2ccc(Cl)cc2)s1
    ., i, -2.1%

Continuation:
Values run as follows: WNV NS2B-NS3 inh, MT1-MMP reporter, Hsc70 ATP site
76	c1coc(CNC2CCCCC2)c1
    ., i, 1.7%
77	O=C(CSc1nc2ccsc2c(=O)n1NC(=O)c1ccccc1)Nc1nccs1
    0.06, i, -0.1%
78	CC(=O)c1cc2c(cc1NS(=O)(=O)c1ccc(C)cc1)OCCO2
    1.5, i, -0.9%
79	COc1ccccc1C1C(C(N)=O)=C(C)Nc2nc(-c3ccccc3Cl)nn21 (stereo unspecified)
    0.93, i, 2.8%
80	Cc1cc(=O)oc(C)c1C(=O)N1CCN(C)CC1
    0.58, i, -7.0%
81	O=C(C[n+]1ccc(C(=O)N/N=C/c2ccc(O)cc2)cc1)c1ccccc1
    ., i, -3.2%
82	O=C(Cn1cc2c(n1)CCCCC2)NC1CCN(Cc2ccccc2)CC1
    -0.35, i, -3.2%
83	Cc1ccccc1Nc1nnc(SCC(=O)NC(=O)NCc2ccco2)s1
    -1.3, i, -10%
84	Cc1cccc(-n2c(=O)c(C#N)cc3c(=O)n4ccccc4nc32)c1
    ., i, 1.3%
85	CCSc1nc2cc(OC)c(OC)cc2c(=O)n1CC
    0.86, i, -4.3%
86	Cc1nn(C)c(C)c1S(=O)(=O)NCc1cccs1
    0.43, i, -5.4%
87	COc1ccc2cc3cc(C(=O)NCC4CCCO4)oc3nc2c1 (stereo unspecified)
    6.3, i, -0.4%
88	COc1ccc(S(=O)(=O)N2CCN(Cc3cccc(Cl)c3)CC2)cc1
    -1.5, i, -1.2%
89	Cc1cc(C)n(-c2nc3c(c(=O)[nH]c(=O)n3C)n2CC(O)COc2ccccc2C)n1 (stereo unspecified)
    -0.94, i, -5.2%
90	O=C1c2oc3ccc(F)cc3c(=O)c2C(c2ccc(F)cc2)N1CCCN1CCOCC1 (stereo unspecified)
    2.7, i, 1.3%
91	Brc1cccc(Cn2c(-c3cncs3)nc3ccccc32)c1
    ., i, -0.2%
92	COc1ccccc1C1(CC(=O)N2CCOCC2)CCOC(C(C)C)C1 (stereo unspecified)
    0.49, i, 3.0%
93	COc1c(N2CCN(C(=S)NCc3ccccc3)C(C)C2)c(F)cc2c(=O)c(C(=O)O)cn(C3CC3)c12 (stereo unspecified)
    ., i, -2.2%
94	COc1ccccc1N(CC(=O)NC(C)(C)C)C(=O)Cn1nnc(-c2ccc(C)o2)n1
    -1.9, i, 2.2%
95	CC1CN(c2ccc(S(=O)(=O)N3CCOCC3)cn2)CC(C)O1 (stereo unspecified)
    ., i, 2.6%
96	Cc1ccc(Cl)cc1N1CCN(C(=O)Cn2ccc3ccccc3c2=O)CC1
    0.38, i, 4.8%
97	O=C(NCc1ccco1)[C@@H]1CSC2c3ccccc3C(=O)N21 (stereo partly specified)
    -0.59, i, -7.5%
98	Cc1sc2ncnc(OCC(=O)c3ccc(S(=O)(=O)N4CCCC4)cc3)c2c1C
    0.84, i, -1.8%
99	Clc1ccccc1-c1nnc2sc(C3COc4ccccc4O3)nn12 (stereo unspecified)
    0.71, i, -5.9%
100	CCN(c1ccccc1)S(=O)(=O)c1cc(OC)ccc1OC
    ., i, -5.7%
101	CCc1cccc(C)c1NC(=O)CSc1nnc(-c2cc3cc(Br)ccc3o2)n1CC
    0.41, i, -2.9%
102	c1ccc(N2CC[N+]3(CCCC3)CC2)nc1
    -0.55, i, 0.9%
103	CCOC(=O)c1c(C)c(C(=O)NCc2cccnc2)c(C)n1C
    0.12, i, -3.0%
104	Cc1sc2ncnc(SCC#N)c2c1C
    -1.3, i, -3.8%
105	COc1ccc(CCNC(=O)C2CC2)cc1OC
    -0.66, i, -1.4%
106	C=CCn1c(-c2ccccc2)c[nH]c1=S
    -0.31, i, -0.7%
107	Cc1cccc(OCC(O)CN2C(C)(C)CC(O)CC2(C)C)c1C (stereo unspecified)
    -0.69, i, 2.1%
108	CCCCn1c(S(=O)(=O)O)nc2ccccc21
    0.87, i, 1.7%
109	CC1CCC(N2CCN(c3ncccn3)CC2)C1 (stereo unspecified)
    ., i, 0.6%
110	COc1ccc(NC(=O)CSc2nnc(C3CCCCC3)n2-c2ccccc2)cc1
    ., i, 4.4%
111	Fc1cccc(NCc2cn3ccccc3n2)c1
    0.13, i, 2.9%
112	COc1ccc(CC(=O)NC(C)(C)CC(C)=O)cc1OC
    ., i, -0.3%
113	Cc1ccc(S(=O)(=O)Cc2ccc(C(=O)NCCCN3CCN(C)CC3)o2)cc1
    -0.49, i, -4.5%
